Screening results: PubChem, National Center for Advancing Translational Sciences (NCATS)
A488 fluor – qHTS Assay for Spectroscopic Profiling in A488 Spectral Region; compound autofluorescence, A488 spectral region, dye equivalency; stronger effect = higher value; max dye equivalency, M; 59,000 compounds, 0.1% hits; AID 591, 2007; active = above 10 nM dye equivalent; inconclusive = 1 to 10 nM; inactive = 1 nM or less; about half of its hits are not listed in these tables;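 note: highest value over a series up to 38 µM; compound alone in buffer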
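Intrinsic compound fluorescence is measured in 100 mM Tris buffer at pH 8.0 following 15 min incubation at room temperature. Intensities at 480 nm excitation/540 nm emission are calibrated to an on-plate A488 concentration series, giving dye-equivalent concentrations.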
Resorufin autofl – qHTS Assay for Spectroscopic Profiling in Resorufin Spectral Region. Compound fluorescence, resorufin region 547/598 nm, buffer; stronger effect = higher value. max dye-equivalent concentration, M. 59,000 compounds, 0.04% hits; active = above 10 nM dye equivalent; inconclusive = 1 to 10 nM; inactive = 1 nM or less; a few of its hits are not listed in these tables; note: highest value over a series up to 38 µM
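Read-out: intrinsic compound fluorescence at ex 547/em 598 nm after 15 min at RT in pH 8.0 Tris (100 mM). Values expressed as resorufin-equivalent concentration from per-plate standard series.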
AID923 – qHTS Assay for Allosteric/Competitive Inhibitors of Caspase-1: Spectroscopic Profiling in AFC Spectral Region; compound fluorescence, AFC spectral region (405/520 nm); almost no hit is shown here; Potency, µM (highest dose often 57.5 µM), without a hit: top-dose fluorescence increase, actives largely listed as activators; 75,000 compounds, 1.1% hits; active = well fitted activation curve with a large enough effect; inconclusive = small, poorly fitted or top-dose-only effect;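 note: potency is the fitted concentration of half-maximal effect; 0% is about no effect; scaled to a free AFC standard on each plate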
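Compound autofluorescence profiled at 405 nm ex/520 nm em during kinetic caspase 1 run (50 nM enzyme, 5 uM Ac-WEHD-AFC, HEPES pH 7.5, 10 mM DTT). Titration up to 57 uM; baseline from regression intercept, normalized to AFC standard curve.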
TSHR ag – qHTS Assay for Agonists of the Thyroid Stimulating Hormone Receptor; Thyrotropin receptor (Homo sapiens), P16473; HEK293-CNG-TSHR cells (CNG channel as cAMP sensor), membrane potential dye, cAMP; Potency, µM (titrated, usually from 57.1 µM), for inactives: at the highest dose activation, hits mostly activators; 73,000 compounds, 0.48% hits; AID 926, 2007; active = well fitted activation curve of enough size with the parental cells flat; inconclusive = any curve in the parental cells; inactive = parental cells flat and receptor cells flat or falling; note: potency is the fitted concentration of half-maximal effect; % of control where 0% means no effect; weak receptor curves with flat parental cells got no call and are not listed
Target sequence (P16473 whole entry, looked up): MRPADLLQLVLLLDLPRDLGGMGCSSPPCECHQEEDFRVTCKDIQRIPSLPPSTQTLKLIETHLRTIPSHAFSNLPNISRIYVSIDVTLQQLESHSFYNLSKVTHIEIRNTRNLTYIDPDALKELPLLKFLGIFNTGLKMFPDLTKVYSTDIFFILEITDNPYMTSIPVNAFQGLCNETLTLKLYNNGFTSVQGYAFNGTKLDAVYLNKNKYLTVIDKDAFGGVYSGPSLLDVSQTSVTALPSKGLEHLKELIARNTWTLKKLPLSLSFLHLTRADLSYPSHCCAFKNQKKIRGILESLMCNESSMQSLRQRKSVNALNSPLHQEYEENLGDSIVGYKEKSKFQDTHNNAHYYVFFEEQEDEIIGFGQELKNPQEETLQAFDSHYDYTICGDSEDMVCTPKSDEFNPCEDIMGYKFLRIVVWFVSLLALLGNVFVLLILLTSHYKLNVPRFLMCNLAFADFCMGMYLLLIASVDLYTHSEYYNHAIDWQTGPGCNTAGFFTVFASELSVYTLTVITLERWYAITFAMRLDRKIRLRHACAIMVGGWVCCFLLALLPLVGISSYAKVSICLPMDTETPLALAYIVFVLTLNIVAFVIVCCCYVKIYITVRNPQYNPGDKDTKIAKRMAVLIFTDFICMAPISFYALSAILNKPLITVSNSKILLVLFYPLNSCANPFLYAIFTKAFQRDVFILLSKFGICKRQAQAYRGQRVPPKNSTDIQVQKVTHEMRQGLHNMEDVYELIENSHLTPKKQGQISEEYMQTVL
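HEK 293 cells stably expressing TSHR and a cAMP-gated CNG channel; parental CNG-only cells as counterscreen. Cells preloaded 60 min with membrane potential dye plus 100 uM RO 20-1724, then compound 30 min; fluorescence read at 590 nm.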
A647 autofl – qHTS Assay for Spectroscopic Profiling in A647 Spectral Region; Compound fluorescence, A647 channel (570/671 nm), Tris buffer; AID 592, 2007; max dye-equivalent concentration, M; 59,000 tested, under 10 active; active means above 1 µM dye equivalent; inconclusive means 0.1 to 1 µM; inactive means 0.1 µM or less;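 note: values scaled relative to a standard on each plate; highest value over a series up to 38 µM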
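Tris 100 mM pH 8.0; cpd + A647 stds pin-transferred; 15 min RT; CCD imager, ex 570/em 671. Output = A647-equivalent conc. per cpd conc.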
* = called active by the depositor; [ ] = remark or other dose. Some of the compounds tested, so the mix of outcomes need not match the whole.

`COc1cccc(C2/C(=C(/O)c3cnn(-c4ccccc4)c3C)C(=O)C(=O)N2CCN(C)C)c1OC` (centres undefined) gave A488 fluor inactive, Resorufin autofl inactive and A647 autofl 2.38e-08.
`COc1ccccc1CCn1c(=O)c(-c2ccc(F)cc2)nc2cncnc21` gave A488 fluor inactive, Resorufin autofl inactive, AID923 3.7%, TSHR ag inconclusive and A647 autofl 1.78e-08.
Cc1nc(N2CCN(Cc3nc4ccccc4[nH]3)CC2)c2oc3ccccc3c2n1 was read as A488 fluor inactive, Resorufin autofl inactive, AID923 0.2%, TSHR ag 10.7% and A647 autofl 1.83e-08.
For CCCc1ccc(OCc2ccc(C(=O)OC)o2)c(OC)c1 the results were A488 fluor inactive, Resorufin autofl inactive, AID923 0.3%, TSHR ag 15.8% and A647 autofl 3.17e-08.
COc1ccc2[nH]c(=O)c(CN(C(=O)c3ccco3)C3CCCCC3)cc2c1 was read as A488 fluor inactive, Resorufin autofl inactive, AID923 -0.5%, TSHR ag 5.5%[11.4 µM] and A647 autofl 1.9e-09.
Screening CN(C)C(=O)c1ccc(-c2ccc3ncnc(NCc4ccccc4)c3c2)cc1 returned A488 fluor inactive, Resorufin autofl inactive, AID923 3.8%, TSHR ag 6.9% and A647 autofl 1.6e-09.
Screening CCOC(=O)C1=C(C)NC(=S)NC1c1cccc(O)c1 (centres undefined) returned AID923 -2.4% and TSHR ag 8.2%.
Screening O=C(Nc1ccc(N2CCN(C(=O)c3ccco3)CC2)cc1)c1cccc(F)c1 returned A488 fluor inactive, Resorufin autofl inactive, AID923 0.7%, TSHR ag -12.2% and A647 autofl 2.21e-08.
COc1ccccc1Nc1ncnc2c1oc1ccccc12 was read as A488 fluor inactive, Resorufin autofl inactive, AID923 -0.9%, TSHR ag inconclusive and A647 autofl 1.63e-08.
CCOC(=O)C(C)n1nc(C)c2sc3ccccc3c2c1=O (centres undefined) was read as A488 fluor inactive, Resorufin autofl inactive, AID923 0.4%, TSHR ag inconclusive and A647 autofl 3.31e-08.
Screening CC1CC(C)CN(C(=O)CSc2nnc(-c3ccc(Cl)cc3)o2)C1 (centres undefined) returned AID923 1.0% and TSHR ag inconclusive.
Screening CCN(C(=O)c1ccnc(C(C)(C)C)c1)c1ccccc1 returned A488 fluor inactive, Resorufin autofl inactive, AID923 -0.8%, TSHR ag 16.4% and A647 autofl 5.14e-08.
`O/N=C1\CC/C(=N\O)c2nn(-c3ccc(Cl)cc3Cl)nc21` gave A488 fluor inactive, Resorufin autofl inactive, AID923 -1.1%, TSHR ag 15.1% and A647 autofl 1e-09.
CCN1CCN(c2ncnc3sc(C(=O)Nc4ccccc4F)c(C)c23)CC1 was read as A488 fluor inactive, Resorufin autofl inactive, AID923 -1.2%, TSHR ag 27.2% and A647 autofl 1e-09.
For COC(=O)c1ccccc1NC(=O)COC(C)=O the results were A488 fluor inactive, Resorufin autofl inactive, AID923 -0.1%, TSHR ag -1.8% and A647 autofl 3.06e-08.
Screening Cc1ccc(S(=O)(=O)N2CCSC2c2ccco2)cc1 (centres undefined) returned A488 fluor inactive, Resorufin autofl inactive, AID923 0.1% and A647 autofl 2.6e-09.
`O=C(N1CCOCC1)N1CCN(Cc2ccccc2)CC1` gave A488 fluor inactive, Resorufin autofl inactive, AID923 -1.4%, TSHR ag -2.3% and A647 autofl 5.1e-08.
`COc1ccccc1CNc1ncncc1-c1ccccc1C(F)(F)F` gave A488 fluor inactive, Resorufin autofl inactive, AID923 0.3%, TSHR ag inconclusive and A647 autofl 1.82e-08.
CC(C)=NO[C@@H](C)c1cc(-c2c(C)cc(C)cc2C)no1 was read as AID923 -2.0%[11.5 µM] and TSHR ag 0.0%[11.4 µM].
Screening O=C(CCn1cccc1)Nc1cccc(F)c1 returned AID923 1.8% and TSHR ag 1.6%.
O=C(c1ccccn1)N(Cc1cc2ccccc2[nH]c1=O)C1CCCCC1 was read as A488 fluor inactive, Resorufin autofl inactive, AID923 0.8%, TSHR ag 4.5% and A647 autofl 1.1e-09.
Screening CC1Cc2nc(SCC(=O)NCCc3ccccc3)n(C)c(=O)c2S1 (centres undefined) returned AID923 -3.3% and TSHR ag 1.8%.
For O=C(Nc1ccccc1)C1CC2CCCC(C1)C2=O (centres undefined) the results were A488 fluor inactive, Resorufin autofl inactive, AID923 -0.5%, TSHR ag 5.2% and A647 autofl 1e-09.
COC(=O)c1ccccc1NC(=O)COC(=O)c1ccco1 was read as A488 fluor inactive, Resorufin autofl inactive, AID923 0.8%, TSHR ag 8.5% and A647 autofl 9.8e-09.
For CC(=O)Nc1ccc(S(=O)(=O)N2CCN(C3CCCCCCC3)CC2)cc1 the results were A488 fluor inactive, Resorufin autofl inactive, AID923 -2.1%, TSHR ag -11.9% and A647 autofl 6.9e-09.
For CC(C)CC1(C(=O)NCC2CC2)C=CCN1C(=O)c1ccccc1 (centres undefined) the results were AID923 -0.9% and TSHR ag inconclusive.
Screening CCN(CC)C(=O)CSc1ncnc2c1cnn2Cc1ccccc1 returned A488 fluor inactive, Resorufin autofl inactive, AID923 2.4%, TSHR ag 4.7% and A647 autofl 3.7e-09.
Screening Cc1ccc(C)c(N2CCN(S(=O)(=O)c3ccc4c(c3)OCCO4)CC2)c1 returned A488 fluor inactive, Resorufin autofl inactive, AID923 0.8%, TSHR ag 25.1µM* and A647 autofl 1e-09.
For CC(C)NC(=O)c1cc(-c2ccco2)on1 the results were A488 fluor inactive, Resorufin autofl inactive, AID923 2.1%, TSHR ag inconclusive and A647 autofl 1.3e-08.
For COC(=O)C(C(=O)Nc1ccccc1C)C1CCCC1 (centres undefined) the results were AID923 0.2% and TSHR ag inconclusive.
`O=C(NC1CCCCCC1)c1nc2ncccn2n1` gave A488 fluor inactive, Resorufin autofl inactive, AID923 -0.7%, TSHR ag inconclusive and A647 autofl 7.5e-09.
CC1=C(C(=O)Nc2ccccc2)C(c2ccc3c(c2)OCO3)C2=C(CCCC2=O)N1 (centres undefined) was read as A488 fluor inactive, Resorufin autofl inactive, AID923 6.6%, TSHR ag inconclusive and A647 autofl 2.25e-08.
`CCN(CC)S(=O)(=O)c1ccc(C(=O)Oc2ccc3c(c2)OCO3)cc1` gave A488 fluor inactive, Resorufin autofl inactive, AID923 0.0%, TSHR ag inconclusive and A647 autofl 1e-09.
Screening CCOC(=O)CN(C(=O)CSc1nnc(CNc2ccc(C)cc2C)o1)c1ccccc1 returned A488 fluor inactive, Resorufin autofl inactive, AID923 -0.7%, TSHR ag 10.4% and A647 autofl 2.14e-08.
`O=C(CSc1nnc2scc(-c3ccc(Cl)cc3)n12)NCc1ccco1` gave A488 fluor inactive, Resorufin autofl inactive, AID923 0.2%, TSHR ag 10.6% and A647 autofl 3.25e-08.
For O=C(Nc1cc(C(F)(F)F)ccc1N1CCOCC1)c1c(F)c(F)c(F)c(F)c1F the results were A488 fluor inactive, Resorufin autofl inactive, AID923 -0.1%, TSHR ag 3.3% and A647 autofl 5.45e-08.
CC1(C)CC(=O)CC(=Nc2ccc3[nH]c(=O)[nH]c3c2)C1 was read as AID923 -1.7% and TSHR ag 2.3%.
Screening COC(=O)[C@@]1(Cc2ccc(F)cc2)[C@@H]2C(=CC(=O)[C@H]2CC(=O)C(=O)N(C)C)CN1C(=O)c1ccccc1 returned AID923 12.8% and TSHR ag -1.2%.
`CC(C)OP(=O)(c1ccc(N(C)C)cc1)C(O)c1c(Cl)cccc1Cl` (centres undefined) gave A488 fluor inactive, Resorufin autofl inactive, AID923 -0.8% and A647 autofl 1.71e-08.
COc1cccc(C2=CC(c3ccccc3)n3nnnc3N2)c1 (centres undefined) was read as A488 fluor inactive, Resorufin autofl inactive and A647 autofl 1.47e-08.

The last two records of the part before lead into the next:
`CC(C)OP(=O)(c1ccc(N(C)C)cc1)C(O)c1c(Cl)cccc1Cl` (centres undefined) gave A488 fluor inactive, Resorufin autofl inactive, AID923 -0.8% and A647 autofl 1.71e-08.
COc1cccc(C2=CC(c3ccccc3)n3nnnc3N2)c1 (centres undefined) was read as A488 fluor inactive, Resorufin autofl inactive and A647 autofl 1.47e-08.
`Cc1ccc(NC(=O)NC(=O)CSc2nnnn2C)c(C)c1` gave A488 fluor inactive, Resorufin autofl inactive, AID923 -1.4%, TSHR ag inconclusive and A647 autofl 5.7e-09.
Screening O=S(=O)(c1cccs1)n1cnc2ccccc21 returned AID923 4.6% and TSHR ag 1.2%.
For c1ccc2c(c1)Cn1nc(Cc3nc4c(s3)CCCC4)nc1-2 the results were A488 fluor inactive, Resorufin autofl inactive, AID923 0.4%, TSHR ag 1.5% and A647 autofl 1e-09.
`Brc1ccc2c(c1)c1nc3ccccc3nc1n2CCN1CCOCC1` gave AID923 3.7% and TSHR ag -29.1%.
COc1cc2c(cc1OC)CN(C(=O)Cc1ccc(OC)c(S(=O)(=O)N3CCOCC3)c1)CC2 was read as A488 fluor inactive, Resorufin autofl inactive, AID923 4.2%, TSHR ag 5.6% and A647 autofl 4.1e-09.
Screening Oc1ccc2c(c1)OCO2 returned AID923 0.4% and TSHR ag 2.8%.
`COC(=O)c1ccc(NC(=O)c2cnc3scc(C)n3c2=O)cc1` gave AID923 0.2% and TSHR ag 2.4%.
For CS(=O)(=O)N(CC(=O)N1CCOCC1)Cc1ccc(Cl)cc1 the results were A488 fluor inactive, Resorufin autofl inactive, AID923 -1.3%, TSHR ag 0.1% and A647 autofl 1.5e-09.
For COc1ccc2c(C)nc(Nc3nc(C)cc(=O)[nH]3)nc2c1 the results were A488 fluor inactive, Resorufin autofl inactive, AID923 1.1%, TSHR ag -17.5% and A647 autofl 1e-09.
For CCc1nc(N2CCN(C(=O)c3ccccc3)CC2)c(C#N)c2c1COC(C)(C)C2 the results were A488 fluor inactive, Resorufin autofl inactive and A647 autofl 1e-09.
Screening Cn1c(=O)c2c(nc(SCCCC#N)n2Cc2ccccc2F)n(C)c1=O returned AID923 6.4% and TSHR ag 3.7%.
`CCOC(=O)N1CCN(C(=O)c2oc3ccc(S(=O)(=O)N4CC(C)CC(C)C4)cc3c2C)CC1` (centres undefined) gave A488 fluor inactive, Resorufin autofl inactive, AID923 1.7%, TSHR ag 8.6%[11.4 µM] and A647 autofl 1.94e-08.
COC(=O)C(C)C1Sc2ccccc2NC1=O (centres undefined) was read as A488 fluor inactive, Resorufin autofl inactive, AID923 1.0%, TSHR ag -0.3% and A647 autofl 2.78e-08.
For Cc1cccc(-c2nc(CS(=O)CC(=O)NC3CCCC3)c(C)o2)c1 (centres undefined) the results were AID923 0.1% and TSHR ag 5.9%.
For O=C(CN(Cc1ccccc1F)C(=O)Cn1nnc(-c2cccs2)n1)NCC1CCCO1 (centres undefined) the results were A488 fluor inactive, Resorufin autofl inactive, AID923 1.2%, TSHR ag -0.2% and A647 autofl 2.05e-08.
Screening CC(C)C(c1nnnn1C1CCCCC1)N1CCN(c2ncccn2)CC1 (centres undefined) returned A488 fluor inactive, Resorufin autofl inactive, AID923 -0.2%, TSHR ag 7.1% and A647 autofl 5e-09.
O=C(Cn1cnc2c(cnn2-c2ccccc2)c1=O)NCCc1ccccc1 was read as A488 fluor inactive, Resorufin autofl inactive, AID923 1.6%, TSHR ag 8.1%[11.4 µM] and A647 autofl 9.4e-09.
`O=C(Nc1ccccn1)c1ccc2ccccc2n1` gave A488 fluor inactive, Resorufin autofl inactive, AID923 -0.1%, TSHR ag inconclusive and A647 autofl 1e-09.

Already shown: entries from further up.
O=C(Cn1cnc2c(cnn2-c2ccccc2)c1=O)NCCc1ccccc1 was read as A488 fluor inactive, Resorufin autofl inactive, AID923 1.6%, TSHR ag 8.1%[11.4 µM] and A647 autofl 9.4e-09.
`O=C(Nc1ccccn1)c1ccc2ccccc2n1` gave A488 fluor inactive, Resorufin autofl inactive, AID923 -0.1%, TSHR ag inconclusive and A647 autofl 1e-09.
